KCNQ2 inh = KCNQ2 potassium channel inhibitors, primary screen, cell-based, CHO-K1, FluxOR thallium flux, B-score (AID 2156). Potassium voltage-gated channel subfamily KQT member 2 (Rattus norvegicus), O88943. 20 min; active compounds read low; only compounds with negative scores are shown here; some inactives read as strong as hits. B-score at 10 µM. 1.1% of 310,000 active;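 active = fluorescence ratio B-score at most minus 3 library SDs, with starting brightness B-score within 2 library SDs, cut at about -5.5 in these data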
Target sequence (O88943 whole entry, looked up): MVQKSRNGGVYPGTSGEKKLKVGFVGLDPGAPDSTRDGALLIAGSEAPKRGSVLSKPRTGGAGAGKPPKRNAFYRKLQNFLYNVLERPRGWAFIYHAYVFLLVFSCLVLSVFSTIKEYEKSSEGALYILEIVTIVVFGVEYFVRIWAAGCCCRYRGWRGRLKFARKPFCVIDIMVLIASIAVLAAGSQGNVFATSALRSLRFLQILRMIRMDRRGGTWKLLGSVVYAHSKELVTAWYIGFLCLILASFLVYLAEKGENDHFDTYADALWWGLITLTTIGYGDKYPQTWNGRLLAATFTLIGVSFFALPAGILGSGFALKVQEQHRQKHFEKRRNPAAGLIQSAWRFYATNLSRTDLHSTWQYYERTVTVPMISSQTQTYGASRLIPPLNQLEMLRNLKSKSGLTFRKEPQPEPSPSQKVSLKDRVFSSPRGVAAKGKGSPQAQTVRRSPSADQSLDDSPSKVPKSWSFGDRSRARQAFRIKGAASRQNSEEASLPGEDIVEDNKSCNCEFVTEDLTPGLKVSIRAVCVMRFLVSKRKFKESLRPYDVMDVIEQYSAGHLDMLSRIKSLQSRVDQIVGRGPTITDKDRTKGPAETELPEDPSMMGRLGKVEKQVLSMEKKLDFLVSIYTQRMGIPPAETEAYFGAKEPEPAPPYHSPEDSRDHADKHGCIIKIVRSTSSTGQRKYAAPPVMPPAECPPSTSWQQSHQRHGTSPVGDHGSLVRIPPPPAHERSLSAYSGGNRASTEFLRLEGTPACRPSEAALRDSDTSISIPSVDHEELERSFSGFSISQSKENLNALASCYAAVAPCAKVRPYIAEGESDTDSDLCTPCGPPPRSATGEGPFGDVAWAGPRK
KCNQ2 inh baseline = second read-out of KCNQ2 inh, no call of its own (marks repeat the call); B-score; measured here: initial fluorescence intensity artifact check;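 brightness before thallium and not channel activity; 0 = typical well and far values either way flag optical interference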
* marks the source's active call; other numbers are inactive results; i = inactive. A portion of the library (hit frequency here may not be typical).

Second line of a record: KCNQ2 inh, KCNQ2 inh baseline
Cc1ccc(S(=O)(=O)/N=C(\N)Nc2nc(C)c3ccccc3n2)cc1
→ i, -0.44
c1ccc(-c2cc3c(N4CCN(c5ncccn5)CC4)ncnc3s2)cc1
→ i, -0.2
COc1ccc(N2CCN(C(c3cc4cc(C)ccc4[nH]c3=O)c3nnnn3Cc3ccccc3)CC2)cc1 (configuration not stated)
→ i, -0.23
Cc1cc2cc(CN(C(=O)C3CC3)C3CCCC3)c3nnnn3c2cc1C
→ i, -0.7
CCCS(=O)(=O)N1CCN(C(=O)COc2ccc(-c3ccccc3)cc2)CC1
→ i, 1.4
CC(=O)OCN(C#N)c1nc(N(C)C)nc(N(C)C)n1
→ i, 0.22
O=S(=O)(N/N=C/c1ccc2c(c1)OCCO2)c1ccc(Cl)cc1
→ i, -0.81
COc1cc(C(C#N)N2CCCCC2)ccc1O (configuration not stated)
→ i, -0.52
CC1(C)c2ssc(=S)c2-c2ccccc2N1C(=O)c1ccco1
→ i, 1.4
CCOC(=O)c1[nH]c2ccc(Br)cc2c1NC(=O)CCN1CCCC(C)C1 (configuration not stated)
→ i, 2.1
O=C(NCCCN1CCOCC1)c1ccc2c(c1)N(Cc1c(F)cccc1Cl)C(=O)c1ccccc1S2
→ i, 0.77
CCC(=O)NC(Cc1ccccc1)c1ccc2c(c1)OCCCO2 (configuration not stated)
→ i, 3.8
O=c1[nH]c2cc3c(cc2cc1CN(CCc1ccccc1)Cc1nnnn1CC1CCCO1)OCO3 (configuration not stated)
→ i, 11
C/C(=N/NC(=O)C(=O)N/N=C(/C)c1ccccc1)c1ccccc1
→ i, 0.06
C[N+](C)(C)CC(O)CC(=O)O (configuration not stated)
→ i, 0.24
CCc1ccc2[nH]c(=O)c(CN(CCN3CCOCC3)C(=O)Nc3ccccc3F)cc2c1
→ i, -3
CCCC(=O)C1=C(O)C(C(=O)OC)C(C)(C)CC1=Nc1cccc2ccccc12 (configuration not stated)
→ i, -0.16
CCN(CC(=O)NC(C)C)C(=O)C(CCSC)NC(=O)c1cccc(C)c1 (configuration not stated)
→ i, 0.26
CN(C)S(=O)(=O)c1cccc(NC(=O)/C=C/c2ccccc2[N+](=O)[O-])c1
→ i, 0.82
CCOC(=O)c1c(C)[nH]c(C)c1S(=O)(=O)NCCCc1ccco1
→ i, -0.39
Cc1cccc(N2CCN(C(=O)Cc3ccc(Br)cc3)CC2)c1C
→ i, -1.6
COCCN(C(=O)Nc1ccccc1)c1ccccc1C
→ i, -1
O=C(NCCCNCc1ccccc1)c1ccncc1
→ i, -0.03
CCc1nc(Nc2ccncc2)c2oc3ccccc3c2n1
→ i, 0.13
O=S(=O)(NC1CCCCC1Nc1ccccc1)c1ccccc1 (configuration not stated)
→ i, 0.82
Cc1cccc(N(C)c2cc(C)nc3nc(C)nn23)c1
→ i, -0.03
COc1ccccc1NC(=S)NCc1ccc(S(N)(=O)=O)cc1
→ i, 0.53
Cc1nccn1-c1c([N+](=O)[O-])c(=O)n(C)c2ccccc12
→ i, -1
CC(=O)Nc1ccc(S(=O)(=O)Nc2ccc3c(c2)CCC3)cc1
→ i, 0.81
COC(=O)c1ccc(Cn2c(CN3CCOCC3)nc3ccccc3c2=O)o1
→ i, 0.26

Pulled one by one from above (3):
Second line of a record: KCNQ2 inh, KCNQ2 inh baseline
Cc1nccn1-c1c([N+](=O)[O-])c(=O)n(C)c2ccccc12
→ i, -1
O=S(=O)(NC1CCCCC1Nc1ccccc1)c1ccccc1 (configuration not stated)
→ i, 0.82
Cc1cccc(N2CCN(C(=O)Cc3ccc(Br)cc3)CC2)c1C
→ i, -1.6

Next entries follow:
Second line of a record: KCNQ2 inh, KCNQ2 inh baseline
COc1ccccc1-n1cc(-c2ccc([N+](=O)[O-])cc2)[nH]c1=S
→ i, 0.22
CCn1cc(C(=O)N2CC(C)CC(C)C2)c(=O)c2cc(S(=O)(=O)N(C)C)ccc21 (configuration not stated)
→ i, 1.2
CCOC(=O)c1sc(NC(=O)CSc2nc(C)cc(C(F)(F)F)n2)c(C#N)c1C
→ i, -1.3
COCCN(C(=O)c1ccccc1F)c1c(N)n(Cc2ccccc2)c(=O)[nH]c1=O
→ i, 2
Nc1cc(C(F)(F)F)ccc1NCCc1ccccn1
→ i, -3.2
CCc1cccc(C)c1NC(=O)C1CCN(C(=O)c2ccc([N+](=O)[O-])cc2)CC1
→ i, -0.99
Cc1cc(NC(=O)COC(=O)C2CCN(S(=O)(=O)c3c(Cl)cccc3Cl)CC2)no1
→ i, 1.2
COCCCNC(=O)c1ccc(CS(=O)(=O)c2ccc(Br)cc2)o1
→ i, 0.76
O=C1NC(=O)/C(=C/c2ccc(OS(=O)(=O)c3ccc(F)cc3F)cc2)N1
→ i, 3.7
CCc1ccccc1NC(=O)CC1SCCNC1=O (configuration not stated)
→ i, 0.15
O=C(/C=C/c1ccc([N+](=O)[O-])cc1)Nc1cccc(C(=O)Nc2ccccc2C(=O)O)c1
→ i, 0.16
Cc1nnc(NC(=O)c2cccc(S(=O)(=O)N3CCc4ccccc43)c2)s1
→ i, 2.3
CCn1c(SCc2ccc(C(=O)Nc3cc(C)cc(C)c3)cc2)nnc1-c1ccncc1
→ i, -0.02
O=C(Cc1cccc2ccccc12)N1CCN(c2ncccn2)CC1
→ i, -0.42
Cc1ccccc1-c1nc2c(s1)CCc1onc(-c3cccc([N+](=O)[O-])c3)c1-2
→ i, 0.37
O=S(=O)(c1ccc(NC(=S)Nc2ccc3c(c2)OCO3)cc1)N1CCOCC1
→ i, 1.3
O=[N+]([O-])c1ccc(-c2csc(N/N=C/c3cccnc3)n2)cc1
→ i, 0.32
COc1ccc(C(=O)O)cc1S(=O)(=O)NCCCN1CCCC1=O
→ i, 0.14
O=C1C(Cl)=C(N2CCN(Cc3ccccc3)CC2)C(=O)N1Cc1ccccc1
→ i, 0.71
N#Cc1cc2c(nc1SCc1cccc(Cl)c1)CCCCC2
→ i, 0.43
CC1CCN(CCCNC(=O)C2CCCN(c3ncnc4c3nc3n4CCCCC3)C2)CC1 (configuration not stated)
→ i, -1.1
O=C(Nc1oc2ccccc2c(=O)c1-c1ccc(Cl)cc1)c1ccco1
→ i, -0.29
CCC(=O)N1N=C(c2cccs2)CC1c1ccc(OC)cc1 (configuration not stated)
→ i, 0.26
CCCCNC(=O)CSc1nc2ccc(NC(=O)CSc3nnc(COc4ccccc4C)n3C)cc2s1
→ i, -2
O=C(NCc1ccco1)c1cc(-c2ccc(F)cc2)on1
→ i, -1.6
O=C(CSc1nc2cc(Cl)ccc2o1)NCCc1ccccc1
→ i, 1.2
Cc1ccc(NC(=O)COC(=O)Cc2cccs2)cc1S(=O)(=O)N1CCOCC1
→ i, 2.3
CCCOC(=O)c1ccc(Oc2cn[nH]c2-c2ccc(O)cc2O)cc1
→ i, -1.3
COc1ccc(C(=O)OCn2nnc3ccccc3c2=O)cc1[N+](=O)[O-]
→ i, 1.4
COc1ccc2[nH]c3nc(SC(C)C)nnc3c2c1
→ i, -0.88
COc1ccc(CCNC(=O)NC2CCCCC2)cc1
→ i, 0.82
C=CCNC(=O)NC(=O)COC(=O)CNS(=O)(=O)c1ccc(F)c(F)c1F
→ i, -1.3
COC(=O)CNC(=O)c1cc(-c2ccncc2)nc2ccccc12
→ i, 0.3
O=C(c1ccc(Cn2c(=S)[nH]c3ccc(N4CCOCC4)cc3c2=O)cc1)N1CCC(N2CCCCC2)CC1
→ i, -1.1
CC(C)(C)c1ccc(/C=C/C(=O)c2ccc(NC3=NCCCS3)cc2)cc1
→ i, 0.64
COc1cccc(/C=C2/SC(=O)N(CC(=O)N3CCc4ccccc4C3)C2=O)c1OCC(=O)O
→ i, -0.11
CCCC(=O)NC(c1ccc(Cl)cc1)c1ccc2cccnc2c1O (configuration not stated)
→ i, -0.47
CN(CC(=O)N1CCN(Cc2ccccc2)CC1)S(=O)(=O)c1cccc2nsnc12
→ i, 1.2
COc1ccc(C(=O)Nn2c(SCC(=O)NCc3ccccc3)nc3ccccc3c2=O)cc1
→ i, 1.3
CCOc1ccc(Nc2ccnc3cc(Cl)ccc23)cc1
→ i, -0.85
Cn1ncc2c(Nc3ccc(Br)cc3)nc(Nc3ccc(Br)cc3)nc21
→ i, 0.03
CCN(CC)CCNC(=O)c1cc2c(=O)n(C)c3ccccc3c2s1
→ i, -0.16
CCOCCCNC(=O)c1cc(Sc2ccc(C)cc2)nc2ccccc12
→ i, 0.75
O=C(/C=C1\NC2(CCCC2)Cc2ccccc21)C(=O)N/N=C/c1ccccc1O
→ i, 0.14
O=C1NCC(=O)N2C(c3ccccc3)c3[nH]c4ccccc4c3C[C@@H]12 (some centres not stated)
→ i, -0.07
Fc1ccc(COc2cccc(-c3n[nH]c(=S)o3)c2)cc1
→ i, 1.2
Cc1cnc(SCc2cnc(C)nc2N)nc1
→ i, 0.05
CCN(Cc1ccncc1)Cc1nc(CC2CC2)no1
→ i, 0.11
O=C(NN1C(=O)C2C3C=CC(C4CC34)C2C1=O)c1ccc(Br)cc1 (configuration not stated)
→ i, 1.1
CC(=O)OC1CCC2(C)C(COc3ccc4ccc(=O)oc4c3)C(C)(O)CCC2C1(C)C (configuration not stated)
→ i, 1.4

Further records follow.
Second line of a record: KCNQ2 inh, KCNQ2 inh baseline
N#C/C(=C(/O)COc1ccccc1)c1nnc2n1CCCCC2
→ i, -0.82
COc1ccc(NC(=O)C2CCN(S(=O)(=O)c3ccccc3)CC2)cc1
→ i, -1.6
Nc1ccc(C(=O)N2CCN(S(=O)(=O)c3ccc4c(c3)OCCO4)CC2)cc1[N+](=O)[O-]
→ i, 0.31
C=CCOC(=O)/C(=C/c1cccc2ccccc12)NC(=O)c1ccccc1
→ i, 1
COc1cc2[nH]c(=O)c(C(=O)NCc3ccc(F)cc3)c(O)c2cc1OC
→ i, -0.1
CCn1nccc1C(=O)Nc1ccc(Cl)cc1Cl
→ i, 1.9
CC1=Nc2ccc(C)cc2/C1=C/c1c(N)n2c(S(=O)(=O)C(C)C)nsc2nc1=O
→ i, -0.49
Cc1cccn2c(=O)c3cc(C(=O)NCCN4CCOCC4)c(=N)n(Cc4ccc(F)cc4)c3nc12
→ i, -1.1
O=C(c1cccc(F)c1)N1CCN(c2cccc(Cl)c2)CC1
→ i, -0.48
O=C(O)CC1S/C(=N/N=C/c2ccc(-c3ccccc3[N+](=O)[O-])o2)NC1=O (configuration not stated)
→ i, -2.4

Overlap with the part before: six compounds, followed by the next part.
Second line of a record: KCNQ2 inh, KCNQ2 inh baseline
COc1cc2[nH]c(=O)c(C(=O)NCc3ccc(F)cc3)c(O)c2cc1OC
→ i, -0.1
CCn1nccc1C(=O)Nc1ccc(Cl)cc1Cl
→ i, 1.9
CC1=Nc2ccc(C)cc2/C1=C/c1c(N)n2c(S(=O)(=O)C(C)C)nsc2nc1=O
→ i, -0.49
Cc1cccn2c(=O)c3cc(C(=O)NCCN4CCOCC4)c(=N)n(Cc4ccc(F)cc4)c3nc12
→ i, -1.1
O=C(c1cccc(F)c1)N1CCN(c2cccc(Cl)c2)CC1
→ i, -0.48
O=C(O)CC1S/C(=N/N=C/c2ccc(-c3ccccc3[N+](=O)[O-])o2)NC1=O (configuration not stated)
→ i, -2.4
Cc1[nH]nc(SCC(=O)Nc2ccc(C#N)cc2)c1[N+](=O)[O-]
→ i, 0.13
Cc1ccc(-c2nc(-c3ccncc3)no2)cc1Cl
→ i, 0.35
COC(=O)C1=C(C)N(Cc2ccccc2)C(=O)N[C@H]1c1cccs1
→ i, -0.3
CCOc1ccc(NC(=O)c2ccccc2C(=O)c2ccccc2)cc1OCC
→ i, -0.88
COc1cccc(C(CNC(=O)C(c2ccccc2)c2ccccc2)N(C)C)c1 (configuration not stated)
→ i, -1.6
CCOc1ccc(Nc2nc(Cc3nnc(SCC(=O)NCc4ccco4)n3CC)cs2)cc1
→ i, -1.6
CCOc1ccc(CN2CCN(Cc3c[nH]c4ccccc34)CC2)cc1
→ i, 9.4
CCOc1ccc(N2C(=O)CN(CC(=O)OC)C2=S)cc1
→ i, 1.4
O=C(Nc1c2n(c(=S)n(-c3ccccc3)c1=O)CCCCC2)c1ccccc1
→ i, 1.2
Cc1ccc(S(=O)(=O)/N=C(/NC(=S)Nc2cccc(C)c2)c2ccccc2)cc1
→ i, 0.78
CSc1ccc(CN2CCC(Oc3cccc(C(=O)N4CCCC4)c3)CC2)cc1
→ i, -0.08
O=C1c2ccccc2CCC1C(O)c1ccccn1 (configuration not stated)
→ i, 0.03
COCCn1c(SCC(=O)N2CC(=O)Nc3ccccc32)nc2ccccc21
→ i, 0.77
CC(C)CC1(C)NC(=O)N(CC(=O)Nc2ccc3c(c2)CCC3)C1=O (configuration not stated)
→ i, -2.7
COc1ccc(-c2noc(Cc3ccc(Cl)cc3)n2)cc1OC
→ i, -0.02
Cc1cccc(NC(=O)C2(c3ccccc3)CC2(Cl)Cl)c1 (configuration not stated)
→ i, -1.3
Cc1cccn2cc(CSc3nnc(Nc4ccc(C(C)C)cc4)s3)nc12
→ i, 0.19
CC1(C)C(=O)C2(CCCCC2)C(=O)OC1c1ccc(O)cc1 (configuration not stated)
→ i, -0.87
O=C(Nc1nnc(COc2ccc(F)cc2)s1)c1ccco1
→ i, -0.9
CCOC(=O)c1sc(Nc2ccc(C)cc2C)nc1C
→ i, 0.56
O=C(Nc1sc2c(c1C(=O)O)CCC2)c1ccccc1F
→ i, -0.2
CC1CCN(C(=O)c2cc3ccccc3cc2O)CC1
→ i, -1.7
CCOP(=O)(c1ccccc1)C(O)c1ccc(Br)cc1 (configuration not stated)
→ i, 0.23
O=C(NC1CCCc2ccccc21)C1CCN(C(=O)c2sccc2-n2cccc2)CC1 (configuration not stated)
→ i, -1.6
Cc1nnsc1C(=O)Nc1ccc(Cl)cc1
→ i, -0.37
COc1ccc(NC(=O)O/N=C/c2ccccc2Cl)cc1
→ i, -1.3
Cc1ccc(-c2nc3cc(Br)cnc3nc2-c2ccc(C)cc2)cc1
→ i, -0.7

Assay outcomes: PubChem, Johns Hopkins Ion Channel Center
